Screening results as filed in PubChem.
Tgondii IFNg – T. gondii growth inhibition under IFN-gamma | Toxoplasma gondii growth in IFN-gamma-treated host cells; stronger effect = lower value; reference of the scale not given here | activity change, negative = inhibition, %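 (about 20 µM by stock and volumes)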 | 69,000 tested, 3.8% active | AID 1259416;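 active means below -70%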;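 further: host cells are HeLa cells infected with Toxoplasma gondii; parasite growth read as luciferase light; one replicate is shown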
Active calls of the source: *; i = inactive. This is a subset; the hit share may differ from the screen's.

SMILES | Tgondii IFNg
Cc1cc(C(=O)N2CCc3c(nc(N)[nH]c3=O)C2)sc1-c1ccccc1 | -10
CNC(=O)CN1CCOCC2(CCCN(C(=O)c3ccn(C)n3)C2)C1 (stereo not drawn) | 1
Cc1nc(C)c(C(=O)N2CCc3cc(-c4csc(C5CC5)n4)ccc32)s1 | -109*
CN1CCN(C(=O)C[C@H]2CC[C@@H]3[C@@H](COc4ccc(NC(=O)C5CCOCC5)cc4C(=O)N3C)O2)CC1 | -3
Cc1nn(C(C)CC(=O)O)c(C)c1Cl (stereo not drawn) | 58
Cc1cnc(-n2cnnc2)c(-c2cccc(C(C)N3CCCC3)c2)c1 (stereo not drawn) | 1
N#Cc1ccc(OC[C@@]23COC[C@H]2CN(C(=O)c2ccoc2)C3)nc1 | 3
CS(=O)(=O)N1[C@H](C#N)[C@H](c2ccc(-c3ccccc3F)cc2)[C@@H]1CO | 14
O=C(O)CSc1nc(Nc2ccccc2)nc(N2CCOCC2)n1 | -31
CCn1c(C2CCCNC2)nn(Cc2ccc(Cl)s2)c1=O (stereo not drawn) | 2
CC(C)c1ccc(NC2CCCN(c3nc(C(N)=O)cs3)C2)cc1 (stereo not drawn) | 15
Cc1ccc(CN2C[C@@H]3COC[C@@]3(Cc3nnc(C4CC4)o3)C2)o1 | -31
COCCN1C(=O)CCc2cc(NC(=O)CC3CCCCC3)ccc21 | 20
O=C(c1cccc(F)c1)N1C[C@H](OCC2CC2)[C@@H]2OCCC[C@@H]21 | 5
O=c1cc(CSc2nc3ccccc3s2)nc(N2CCN(Cc3ccccc3)CC2)[nH]1 | 143
Cc1ccc(-c2nc(Cn3c(C)nc4onc(C)c4c3=O)c(C)o2)cc1 | 31
COc1cc(C(F)(F)F)cc(C(F)(F)F)c1C(N)=O | -50
CCCCN(Cc1cccs1)S(=O)(=O)c1ccc2[nH]c(=O)ccc2c1 | 99
CCN(CC)c1ncnc2c1cnn2CC(=O)Nc1cc(C)ccc1C | -21
Cc1cc(C)c(S(=O)(=O)NCc2cccnc2)cc1N(C)S(=O)(=O)c1ccccc1 | 9
CCCNC(=O)c1cc2ccc(-c3cccc(OC)c3)cn2c1-c1cocn1 | -11
CC1CCCCN1C(=O)CSc1ccc(-c2ccc(F)cc2)nn1 (stereo not drawn) | 21
CCN1c2ccc(C)cc2C(=O)NC12CCN(C(=O)c1cccc(F)c1)CC2 | 55
O=C(O)CCCNC(=O)C(c1ccccc1)c1ccccc1 | 31
CCN1c2ccc(F)cc2C(=O)NC12CCN(C(=O)c1ccc(OC)cc1C)CC2 | -23

Given as tab-separated lines: part of the list above.
structure	Tgondii IFNg
CN1CCN(C(=O)C[C@H]2CC[C@@H]3[C@@H](COc4ccc(NC(=O)C5CCOCC5)cc4C(=O)N3C)O2)CC1	-3
Cc1cc(C(=O)N2CCc3c(nc(N)[nH]c3=O)C2)sc1-c1ccccc1	-10

The listing continues:
SMILES | Tgondii IFNg
Cc1coc2c1C(=O)C(=O)c1c-2ccc2c(C)cccc12 | -72*
Cc1ccc(CN2CC[C@H]3[C@H](CC2)S(=O)(=O)CCN3C(=O)c2ccccc2)cc1 | -3
O=C(c1cccc(F)c1)N1CCN(S(=O)(=O)c2cc3c4c(c2)CCN4C(=O)CC3)CC1 | 32
CC(C)CN(Cc1c(O)ccc2c(=O)c(-c3ccccc3)coc12)CC(C)C | 25
COC(C)c1ccc(-c2cc(C(=O)N3CCCCC3)ccn2)cc1 (stereo not drawn) | -41
O=C(O)CCCC(=O)Nc1cccc(F)c1C(=O)O | 5
CC(C)c1cc(C(=O)N(C)Cc2nccn2Cc2ccccc2)no1 | -1
CCc1ccc(OCc2ccccc2C(=O)Nc2ccc3nc(C)cc(N)c3c2)cc1 | -74*
O=C(c1ccc(F)cc1)c1cc2cc(Br)cc(Br)c2o1 | 85
COc1ccc(CN2CCn3cc(Cn4cccn4)nc3C2)cc1 | -43
CC1CCCCN1S(=O)(=O)c1ccc2c(c1)CCC(=O)N2CC(=O)NCCc1ccccc1 (stereo not drawn) | 9
COc1cccc(N2CC(NC(=O)c3cnc(N4CCC(C)CC4)nc3)CC2=O)c1 (stereo not drawn) | 1
CN(C)C(=O)N1C[C@@H]2[C@@H](C1)C(=O)N(C)C21CCN(S(C)(=O)=O)CC1 | -28
Cc1cnccc1N1CCCN(C(=O)CC2CCc3ccccc32)CC1 (stereo not drawn) | -20
CCC(CC)n1nc(C)cc1NC(=O)Cn1nc(C(F)F)cc1C | -47
Cc1ccc(CN2CC[C@@H]3[C@@H]2CCN3C(=O)c2cnn(C)c2)s1 | -12
C[C@H](O)C#Cc1ccc([C@@H]2[C@H](CO)N3CCCCN(C(=O)c4ccc5c(c4)OCO5)C[C@@H]23)cc1 | 7
COc1ccccc1C1(NCc2c(C)nn(C(C)C)c2C)CCCC1 | 20
CCCc1nnc2sc(CCc3ccccc3)nn12 | -13
CN(C)CCN1CCOCC2(CCN(C(=O)C3CCOC3)CC2)C1 (stereo not drawn) | -7
Cc1cc(C)n2nc(C(=O)NCCN3CCc4ccccc43)c(Cl)c2n1 | 88
C=CCOC1C2CCC1N(Cc1ccc3c(c1)OCO3)CCO2 (stereo not drawn) | 68
O=C(Nc1ccc(F)cc1)N1C[C@H]2[C@@H](c3ccccc31)[C@H](CO)N2C(=O)c1ccncc1 | 19
COC(=O)CC(=O)CC(C)n1nc(C)nc1C (stereo not drawn) | -4
O=C(Nc1ccc(OC(F)(F)F)cc1Br)c1cnccn1 | -110*

Quoted from the entries so far, 3 compounds:
SMILES | Tgondii IFNg
Cc1ccc(CN2CC[C@H]3[C@H](CC2)S(=O)(=O)CCN3C(=O)c2ccccc2)cc1 | -3
O=C(c1cccc(F)c1)N1CCN(S(=O)(=O)c2cc3c4c(c2)CCN4C(=O)CC3)CC1 | 32
CC(C)CN(Cc1c(O)ccc2c(=O)c(-c3ccccc3)coc12)CC(C)C | 25

Continuation.
SMILES | Tgondii IFNg
C[C@H](CO)N1C[C@H](C)[C@@H](CN(C)S(=O)(=O)c2cn(C)cn2)Oc2ncc(C3=CCCCC3)cc2C1=O | 100
Cc1ccc(Cl)cc1NC(=O)Cn1ncc2c(N3CCCCC3)ncnc21 | 146
CC(C)c1ccc(-c2cc(N3CCN(C)CC3)nc(N)n2)cc1 | -44
C=CCn1cc(CN(C)CCN2CCCCC2C)c(C)n1 (stereo not drawn) | -2
CC(CN1CCOCC1)OC(=O)Cc1ccc(Cl)cc1 (stereo not drawn) | -27
CN(C)CC1COC2(CCCN(C(=O)Cc3cccnc3)C2)C1 (stereo not drawn) | -1
O=C(NC1CCCCC1)c1nc(Nc2ccccc2)c2ccccc2n1 | -56
COCCn1c(=O)n(CC(=O)N2CCCCCC2)c2cc(C(=O)O)ccc21 | -28
Cc1ccccc1OCCNc1nc(C)c(C(=O)Nc2ccccc2)s1 | -33
COC(=O)[C@@H]1C[C@@H](O)CN1C(=O)CCNC(=O)c1ccc(F)cc1 | 5
CS(=O)(=O)N1CCC(c2nc3ccc(N4CCOCC4)cn3n2)CC1 | 4
CCN1CCN(Cc2ccc(NC(=O)CN3C(=O)CCc4cc(Br)ccc43)cc2)CC1 | -92*
CC(C)c1ccc(NC(=O)NC(=O)c2ncon2)cc1 | 89
CSc1nc(N)nc(-c2cccs2)n1 | 25
COc1cccc(C)c1C(=O)N1CCOC(c2ccc(Cl)c(Cl)c2)C1 (stereo not drawn) | -77*
CCc1nccn1CC(=O)N1CCN2CCNC(=O)C2C1 (stereo not drawn) | -48
COCCN1C(=O)CCC12CCN(c1ccc(C)nn1)CC2 | -11
N#Cc1c(Cl)cccc1Oc1ccc(-c2ccn[nH]2)cc1 | -2
CN(C)c1ccc(-c2nnc(-c3ccc(Cl)cc3)o2)cc1 | 116
Cc1ccc(OCCCN(C)C(=O)C2CCN(C)C2)cc1C (stereo not drawn) | -5
Cc1ccc(C(=O)N2CCn3nnc(COCc4cccnc4)c3C2)cc1F | 5
Cc1noc(C)c1NC(=O)N1C[C@H](O)COC[C@H]2O[C@H](CC(=O)NCC3CC3)CC[C@@H]21 | 12
Cc1cc(C)cc(NS(=O)(=O)c2cc3c4c(c2)CCN4C(=O)CC3)c1 | -79*
Cc1nnsc1C(=O)Nc1cccc(N)c1 | 2
COCCC(=O)N1Cc2nccn2CC(COc2cccnc2)C1 (stereo not drawn) | -3

Some of these compounds in order of count of non-hydrogen atoms, lowest first:
SMILES | Tgondii IFNg
CSc1nc(N)nc(-c2cccs2)n1 | 25
CN(C)c1ccc(-c2nnc(-c3ccc(Cl)cc3)o2)cc1 | 116
COCCN1C(=O)CCC12CCN(c1ccc(C)nn1)CC2 | -11
CC(C)c1ccc(-c2cc(N3CCN(C)CC3)nc(N)n2)cc1 | -44
COc1cccc(C)c1C(=O)N1CCOC(c2ccc(Cl)c(Cl)c2)C1 (stereo not drawn) | -77*
Cc1ccc(C(=O)N2CCn3nnc(COCc4cccnc4)c3C2)cc1F | 5
C[C@H](CO)N1C[C@H](C)[C@@H](CN(C)S(=O)(=O)c2cn(C)cn2)Oc2ncc(C3=CCCCC3)cc2C1=O | 100

Next section
SMILES | Tgondii IFNg
CN1CCCC2(CCN(C(=O)Cc3nnc(N)s3)C2)C1=O (stereo not drawn) | -18
O=C(C[C@@H]1CC[C@H]2[C@@H](COC[C@H](O)CN2CC2CCOCC2)O1)NCc1ccc(Cl)cc1 | -33
C[C@H]1CN(C[C@H](Cc2ccccc2)C(=O)NCC(=O)O)CC[C@@]1(C)c1cccc(O)c1 | 15
COc1cc(NC(=O)c2nc(-c3cccc(F)c3)n3c2CCCCC3)cc(OC)c1OC | -105*
C=CCN1CCCC12CCCN(C(=O)c1ccc(C)o1)C2 (stereo not drawn) | 7
COc1ccc(NC(=O)N(C)C[C@H]2Oc3ccc(NC(=O)CCN4CCOCC4)cc3C(=O)N([C@@H](C)CO)C[C@H]2C)cc1 | 14
Cc1cc(C)c2c(n1)sc1c3ccccc3c(N)nc12 | -102*
Fc1ccc(C2CCCN2Cc2ccc3nonc3c2)cc1 (stereo not drawn) | -5
CC(C)CC(NC(=O)c1cccc(Cl)c1)C(=O)O (stereo not drawn) | -35
CCN(CC)CCn1ccnc1-c1nc[nH]c1C | 8
COc1cc2ncnc(Sc3ccc(Cl)cc3)c2cc1OC | 6
CCN(C/C=C/c1ccccc1)C(=O)[C@H](N)Cc1ccccc1 | 0
Cc1oc(-c2cccc(Cl)c2)nc1Cn1nnc(C(=O)Nc2ccccc2F)c1C | -11
CC12CCC(C(=O)N3CCc4ccccc43)(CC1=O)C2(C)C (stereo not drawn) | -21
COc1ccc(-c2cc(=O)c3c(O)cc(O)cc3o2)cc1 | 93
COc1ccc(-c2nc(NCCCN3CCCCC3C)c3ccccc3n2)cc1 (stereo not drawn) | -54
O=C(CSCc1ccccc1Cl)N1CCS(=O)(=O)CC1 | 67
Cc1cc2nc(CN(C)Cc3ccc(CO)o3)[nH]c2cc1C | 28
COc1cccc(CNC(=O)c2nc3c(s2)CCN(C(=O)CC(C)C)CC3)c1 | 208
c1nc(N2CCCC(Nc3ccc4c(c3)OCCO4)C2)c2cc[nH]c2n1 (stereo not drawn) | 474
CCOC(=O)c1ccc(NC(=O)NCC(c2cccnc2)c2cn(C)c3ccccc23)cc1 (stereo not drawn) | i
COc1ncc(C(=O)N2Cc3cnc(C(C)(C)C)nc3C2)cn1 | 2
O=C(C[C@H]1CC[C@H]2[C@@H](COC[C@@H](O)CN2CCc2ccccc2)O1)NCCCN1CCOCC1 | 9
CC(C)OCCNc1nc(CCN)nc2ccccc12 | 20
Cc1ncsc1CCC(=O)N1CC(=O)N(C2CCCCC2)CC(OCc2ccccc2)C1 (stereo not drawn) | -3
SMILES | Tgondii IFNg
COC(=O)c1cc(OC)c(OC)c(OC)c1[N+](=O)[O-] | 10
Cc1occc1C(=O)N1C[C@@H]2OCCN(CCN3CCCC3)[C@H]2C1 | 194
Cc1cccc(C2=NC3(CCN(CC(=O)Nc4ccc(C)c(F)c4)CC3)NC2=O)c1 | -5
CC(C)C[C@@H](C=O)NC(=O)[C@H](CC(C)C)NC(=O)[C@H](CC(C)C)NC(=O)OCc1ccccc1 | -81*
Cc1ccc(S(=O)(=O)CCNCC(=O)Nc2ccc(C)cc2C)cc1 | -3
CCOC(=O)c1cc(OC(C)=O)c2ccc(OC)c(OC)c2c1 | 22
Cc1ccc(CNC(=O)CC2Nc3c4ccccc4nc(=S)n3C2=O)cc1 (stereo not drawn) | -21
COc1ccc2nc(NCCCNC(=S)Nc3ccccc3)c(C#N)cc2c1 | -62
Cc1ccc(S(=O)(=O)N2CCCCC2)cc1 | -28
Cc1ccc(Cl)cc1NC(=O)N1CCC(c2nc(C(=O)N(C)C)c(C)o2)CC1 | -38
O=C(Nc1cccc(-c2cnco2)c1)C1COc2ccccc2O1 (stereo not drawn) | -37
CC(=O)N1c2ccccc2C(CSc2nc3ccccc3s2)=CC1(C)C | -22
CC(=O)N1Cc2ccccc2OC2(CCC(N(C)C(=O)c3cc(-c4ccco4)on3)CC2)C1 (stereo not drawn) | -11
CN(C)C1CCCN(C(=O)CCc2nc(-c3ccco3)no2)CC1 (stereo not drawn) | 4
CC(C)c1nnc(NC(=O)C2CC(=O)N(CCc3c[nH]c4ccc(F)cc34)C2)s1 (stereo not drawn) | 18
CCOc1cccc(C2c3[nH]c4ccccc4c3CCN2C(=O)c2ccc(Br)cc2)c1 (stereo not drawn) | -98*
COC(=O)/C=c1\sc2nc(N)nn2c1=O | -41
CC(C)(C)[S@](=O)N1Cc2cc(C(=O)NC3CCC3)nc(-c3cccc(-c4ccccc4F)c3)c2[C@@H]1CCO | -39

Filtered by structure, the compounds so far with a cyano group
SMILES | Tgondii IFNg
N#Cc1ccc(OC[C@@]23COC[C@H]2CN(C(=O)c2ccoc2)C3)nc1 | 3
CS(=O)(=O)N1[C@H](C#N)[C@H](c2ccc(-c3ccccc3F)cc2)[C@@H]1CO | 14
N#Cc1c(Cl)cccc1Oc1ccc(-c2ccn[nH]2)cc1 | -2
COc1ccc2nc(NCCCNC(=S)Nc3ccccc3)c(C#N)cc2c1 | -62
